Screening data (PubChem)
VACV mCherry inh = vaccinia inhibition (mCherry reporter). hit rate 0.63% among 310,000. Potency, µM (doses to about 36.5 µM), inactives show at the highest dose activity change, negative = inhibition, usual class: inhibitors. Vaccinia virus mCherry reporter infection, fluorescence; about a quarter of the inactives have no number; active = well fitted inhibition curve with a large enough effect; inconclusive = small, poorly fitted or top-dose-only effect; inactive = no such curve, though single readings can be large or run the other way; tested in A549 cells; further: nearly all actives have a fitted effect of over 35% in size; inactives centre near -10
Vaccinia Venus = vaccinia inhibition (Venus reporter) | Vaccinia virus Venus reporter expression, fluorescence | Potency, µM (series often up to 36.5 µM), for the others: at the top dose activity change, negative = inhibition, hits mostly inhibitors | hit rate 0.46% among 330,000; active means well fitted inhibition curve with a large enough effect; inconclusive means small, poorly fitted or top-dose-only effect; inactive means no such curve, though single readings can be large or run the other way; tested in A549 cells; further: nearly all actives have a fitted effect of over 30% in size; inactives centre near -10
Active calls of the source: *; i = inactive; ? = inconclusive; · = no result given. On the % scale 0 is the no-effect control and ±100 the full control effect; potency means the concentration at half of the fitted maximal effect.

Below each compound: VACV mCherry inh | Vaccinia Venus
COc1cccc(C2/C(=C(\O)c3ccc4c(c3)OCO4)C(=O)C(=O)N2CCN(C)C)c1OC (configuration not stated)
→ -17% | -12%
O=C(NC1CC1)c1cccc(Oc2ccccc2)c1
→ -9% | -8%
Cc1c(NC(=O)c2ccc(N(C)S(=O)(=O)c3ccccc3)cc2)c(=O)n(-c2ccccc2)n1C
→ 8% | -6%
Cc1ccc(NC(=O)CC2SC3=NCCCN3C2=O)c(C)c1 (configuration not stated)
→ i | -12%
CC(=O)Nc1nc2ccccc2n1Cc1ccccc1
→ -14% | -4%
NS(=O)(=O)c1ccc(CCNC(=S)Nc2ccc(F)cc2)cc1
→ -21% | -9%
CC(NC(=O)COC(=O)c1ccccc1O)C1CC2CCC1C2 (configuration not stated)
→ -7% | -17%
COC(=O)c1cc(C(=O)OC)cc(-n2c(C)cc(C=O)c2C)c1
→ -2% | 1%
Nc1cc2c(cc1C(=O)c1cccc(Br)c1)OCCO2
→ -17% | -11%
CC(=O)c1ccc(NC(=O)c2sc(-n3nc(C)c(Cc4ccc5c(c4)OCO5)c3C)nc2C)cc1
→ -20% | -18%
COc1ccc(CN2CCNC(=O)C2CC(=O)NCCC2=CCCCC2)c(F)c1 (configuration not stated)
→ -14% | -14%
Oc1ccc(/C=N/NC(=S)Nc2cccnc2)c(O)c1O
→ i | 14%
CC(=O)c1ccc(NC(=O)COC(=O)C2CCN(S(=O)(=O)c3cccs3)CC2)cc1
→ -15% | -16%
O=Cc1c2[nH]c3ccccc3c2cc2[nH]c3ccccc3c12
→ -6% | -14%
CC(Cc1cccnc1)NC(=O)CCc1nnc(-c2ccccc2)o1 (configuration not stated)
→ 13% | 2%

Reprinted from the part before: three compounds, then new ones.
Below each compound: VACV mCherry inh | Vaccinia Venus
CC(=O)c1ccc(NC(=O)COC(=O)C2CCN(S(=O)(=O)c3cccs3)CC2)cc1
→ -15% | -16%
O=Cc1c2[nH]c3ccccc3c2cc2[nH]c3ccccc3c12
→ -6% | -14%
CC(Cc1cccnc1)NC(=O)CCc1nnc(-c2ccccc2)o1 (configuration not stated)
→ 13% | 2%
C=C(C)c1cccc(C(C)(C)NC(=O)Nc2ccc(C)cn2)c1
→ -23% | -15%
Cn1c(N)cc(=O)[nH]c1=S
→ i | -11%
COCC(=O)Nc1ccc([N+](=O)[O-])cc1C
→ -11% | -13%
CCOC(=O)C1(CCOc2ccccc2)CCN(Cc2nccn2CC)CC1
→ -4% | -15%
c1ccc(-c2nc(N3CCOCC3)s[n+]2-c2ccccc2)cc1
→ -1% | -13%
Cc1cc2ncn(/N=C/c3cccnc3)c2cc1C
→ -29% | -19%
CCOC(=O)C1(Cc2ccccc2)C(=O)Nc2ccccc21 (configuration not stated)
→ -3% | -13%
CN1C(=O)/C(=C/C=C2\SCCN2C)OC1=S
→ -4% | -4%
CCOC(=O)c1cc(-c2ccco2)nc2c1c(C)nn2CCC#N
→ · | ?
O=C(Nc1cccnc1)c1sc2cccc(F)c2c1Cl
→ -7% | -8%
Cc1cc(C)c2nc(-c3ccccn3)cc(C(=O)NCc3ccc(S(N)(=O)=O)cc3)c2c1
→ -4% | -15%
O=C(COC(=O)C1CCN(S(=O)(=O)c2cccc3cccnc23)CC1)c1ccccc1
→ -13% | -7%
CC(C)OC(=O)CCCNc1ccc([N+](=O)[O-])cc1[N+](=O)[O-]
→ 0% | -8%
Cc1ccc2c(c1)-c1nc(-c3ccc4c(c3)NC(=O)CO4)cc(-c3ccc(F)cc3)c1CO2
→ -16% | -22%
O=c1[nH]c2ccccc2n2c(=S)[nH]nc12
→ i | 3%
CCC1(c2ccccc2)NC(=O)N(CC#N)C1=O (configuration not stated)
→ -6% | -6%
CCc1ccc(Nc2cc(=O)n(C3CCCCC3)c(=O)[nH]2)cc1
→ ? | ?
Cc1cc(C)c(C)c(S(=O)(=O)NCC(=O)Nc2sc3c(c2C(N)=O)CCCC3)c1C
→ -17% | -24%
CN1C(=O)[C@H]2[C@@H](c3ccc(C(F)(F)F)cc3)N[C@]3(CCCN(Cc4ccc(Cl)cc4)C3=O)[C@H]2C1=O
→ -22% | ?
O=C(Nc1ccccc1OC(F)F)c1ccc(S(=O)(=O)N2CCOCC2)cc1
→ i | -13%
CCCNC(=S)N1CCC(NC(=O)c2ccc(C)cc2)CC1
→ i | -1%
CCCN1CNc2c(c(=O)[nH]c(=S)n2CCc2cccc(OC)c2)C1
→ -11% | -13%
Cc1cccc(C2N(c3ccc(F)cc3)C(=O)C3CCCN32)c1 (configuration not stated)
→ -7% | -2%
COc1ccc(C(=O)NCc2nnc(SCC(=O)NC3=NCCS3)n2C)cc1
→ -1% | 2%
O=C(CSc1oc(-c2ccccc2)nc1S(=O)(=O)c1ccccc1)c1ccccc1
→ -17% | -12%
COc1ccccc1NC(=O)c1cc(-c2cc(OC)c(OC)c(OC)c2)nc2ccccc12
→ -16% | 6%
NC(=S)/N=C/c1c(O)[nH]c(=O)[nH]c1=O
→ -9% | -11%
C/C=C/c1ccc(OCCCCOc2c(OC)cccc2OC)c(OC)c1
→ i | -8%
O=c1nc(NCc2ccccc2Cl)cn[nH]1
→ -24% | -2%
Cn1c(=O)n(Cc2c(F)cccc2Cl)c(=O)c2c1nc1n2CCN1c1ccc(F)cc1
→ -10% | -4%
CC(=O)N1CCN(c2ccc(NCc3cccc4ccccc34)cc2)CC1
→ -9% | -10%
Cc1c(Cc2ccccc2)c(=O)oc2cc(OCC(=O)NC(Cc3ccc(Cl)cc3)C(=O)O)ccc12 (configuration not stated)
→ -7% | -9%
COc1cc(N2CCC(O)CC2)ccc1Nc1nnc(Cl)c(Nc2ccccc2S(C)(=O)=O)n1
→ ? | ?
COc1ccc(OC)c2sc(NC(=O)c3cccc(N4C(=O)CCC4=O)c3)nc12
→ i | -8%
C[C@H](CO)N1C[C@H](C)[C@@H](CN(C)Cc2ccccc2F)Oc2ncc(Br)cc2C1=O
→ 4% | -7%
CN(CC(=O)NC1CCCCCC1)S(=O)(=O)c1ccc(Br)cc1
→ i | -9%
CCOC(=O)c1cccc(N2C(=O)C3C(C(=O)NC4CC4)C4(C)C=CC3(O4)C2C(=O)NC(C)(C)C)c1 (configuration not stated)
→ -25% | -4%
COc1cccc(C2C(C(=O)Nc3ccccc3)=C(C)Nc3nc(-c4ccccc4)nn32)c1 (configuration not stated)
→ -7% | -1%
COc1ccc(C(=O)Nc2nc(-c3cccs3)c(NC(C)=O)s2)cc1
→ -19% | -14%
COC(=O)c1ccc(COc2ccc(CNCc3ccc(Cl)cc3)cc2)cc1
→ i | -1%
C=CCN(c1ccccc1C(=O)NCC(=O)OCC)S(=O)(=O)c1ccc(C)cc1
→ i | -1%
COC(=O)C1=CN(c2ccc(N3CCOCC3)cc2)C(N)=C(C#N)C1c1ccc(-c2ccccc2)cc1 (configuration not stated)
→ ? | -29%
Cc1ccc(C(=O)N2CCC(n3nccc3NC(=O)c3ccccc3C)CC2)cn1
→ -7% | 2%
CCn1c(N2CCC(C)CC2)nc2c1c(=O)n(C)c(=O)n2C
→ -1% | 6%
CC(C)NC(=S)N/N=C/c1cc(Br)ccc1O
→ i | ?

Record cards, as listed above. Values in the order: VACV mCherry inh, Vaccinia Venus
CC(C)NC(=S)N/N=C/c1cc(Br)ccc1O reads i, ?
CCn1c(N2CCC(C)CC2)nc2c1c(=O)n(C)c(=O)n2C reads -1%, 6%

Part of the list above, field by field:
molecule: CN(CC(=O)NC1CCCCCC1)S(=O)(=O)c1ccc(Br)cc1
  VACV mCherry inh: i	Vaccinia Venus: -9%

molecule: CCOC(=O)c1cccc(N2C(=O)C3C(C(=O)NC4CC4)C4(C)C=CC3(O4)C2C(=O)NC(C)(C)C)c1 (configuration not stated)
  VACV mCherry inh: -25%	Vaccinia Venus: -4%

(listing goes on)
Below each compound: VACV mCherry inh | Vaccinia Venus
O=C(CCc1ccccc1)NNC(=O)C12CC3CC(CC(C3)C1)C2
→ ? | -24%
COc1cccc(-n2c(COc3ccccc3C)nnc2SCC(=O)O)c1
→ -2% | 2%
O=C(Nc1nc(-c2ccco2)c(-c2ccco2)s1)C1CC(=O)N(c2ccc3c(c2)OCCO3)C1 (configuration not stated)
→ -14% | 6%
C=CCNc1nc(N)c([N+](=O)[O-])c(Nc2ccccc2OC)n1
→ -4% | -25%
CCNC(=O)C(C)Oc1ccc(Cl)cc1Cl (configuration not stated)
→ -12% | -6%
CC(C)c1ccccc1NC(=O)COc1ccc(C(=O)NCCc2ccccc2)cc1
→ ? | ?
NS(=O)(=O)c1ccc(-c2ccc(/C=C3\SC(=O)NC3=O)o2)cc1
→ i | -18%
O=S(=O)(Nc1cccc(-c2ccc(N3CCCC3)nn2)c1)c1ccc(F)cc1F
→ 6% | -6%
COc1ccc(-c2nc(CS(=O)CC(=O)NCc3ccc(F)cc3)c(C)o2)cc1 (configuration not stated)
→ -17% | -3%
O=C(C[n+]1ccncc1Cl)c1ccc(F)cc1
→ i | -11%
O=C(O)c1ccc(CNS(=O)(=O)c2ccc3ccccc3c2)cc1
→ -3% | 3%
CCN(CC)S(=O)(=O)c1ccc(NC(=O)c2nn(C)c3c2CSc2ccccc2-3)cc1
→ -17% | -10%
Cc1ccc(NC(=O)CO/N=C/c2ccccc2C)c(C)c1
→ i | -8%
CC(=O)NC(Cc1c[nH]c2ccccc12)C(=O)N1CCc2ccccc2C1 (configuration not stated)
→ -8% | 3%
Fc1ccc(Nc2ccc(-c3ccc(F)cc3)nn2)cc1
→ i | -22%

(listing goes on)
Compound,VACV mCherry inh,Vaccinia Venus
Cc1cc(C)cc(Oc2nn[nH]n2)c1,-20%,-7%
CCN(CC)C(=O)COc1coc(CN2CCN(c3ccccc3F)CC2)cc1=O,-8%,-2%
CC(=O)c1nn(-c2ccc(C(F)(F)F)cc2)c(=O)[nH]c1=O,i,-5%
CCOc1ncccc1C(=O)NNC(=O)c1cccc(S(=O)(=O)Nc2ccc(OC)cc2)c1,i,-8%
CCN(C(=O)CSc1nc(N)cc(=O)[nH]1)c1c(N)n(Cc2ccccc2)c(=O)[nH]c1=O,-2%,-1%
COC(=O)[C@]12CCCCC=C1N(CCc1ccc(OC)c(OC)c1)C(=O)[C@H](CC(=O)N1CCC(c3ccccc3)CC1)C2,0%,?
CN(Cc1ccccc1)C(=O)c1nc[nH]c1C(=O)N1CCc2ccccc2C1,-28%,-20%
Cc1occc1-c1n[nH]c(=S)n1-c1ccccc1,-10%,-4%
CCOc1ccc(NC(=O)CN2CCN(CC(=O)Nc3ccc(OC)cc3OC)CC2)cc1,7%,-14%
CC(C(=O)Nc1ccc(C#N)cc1)N1CCN(C(=O)C2CC2)CC1 (configuration not stated),-2%,-6%
CCN(CC(O)COc1ccc(OCC(O)CN(CC)C2CCCCC2)cc1)C1CCCCC1 (configuration not stated),?,-17%
Cn1c(=O)[nH]c(=O)c2c1nc(N1CCNCC1)n2Cc1ccccc1,-12%,-7%
O=c1[nH]c(C2CCN(S(=O)(=O)c3ccccc3)CC2)nc2c1nnn2Cc1ccccc1,-12%,-11%
COc1ccc(CC(=O)N2CCc3cc(OC)c(OC)cc3C2COc2cc(C)cc(C)c2)cc1OC (configuration not stated),-3%,-5%
CCn1ccc(C(=O)Oc2ccc(Cl)cc2)n1,i,-10%
NC(Cc1ccc(C(F)(F)F)cc1)c1csc(Nc2cnccn2)n1 (configuration not stated),19%,-12%
CNC(CC(C)C)C(=O)NC1C(=O)NC(CC(N)=O)C(=O)NC2C(=O)NC3C(=O)NC(C(=O)NC(C(=O)O)c4cc(O)cc(O)c4-c4cc3ccc4O)C(O)c3ccc(c(Cl)c3)Oc3cc2cc(c3OC2OC(CO)C(O)C(O)C2OC2C[C@](C)(N)C(O)C(C)O2)Oc2ccc(cc2Cl)C1O (some centres not stated),i,-3%
CCN(C[C@H]1N[C@@](CC)(C(=O)OC)[C@H]2C(=O)N(Cc3ccccc3)C(=O)[C@@H]12)C(=O)COc1ccccc1,i,-11%
COc1cccc(-c2oc3c(c2C(=O)OCCN2CCCCC2)C(O)CCC3)c1 (configuration not stated),-9%,5%
O=C(COC(=O)c1ccccc1NS(=O)(=O)c1ccc(Cl)cc1)NCc1ccccc1,-6%,-9%
Cc1cccc(CNC(=O)c2ccc(NC(=O)N3CCSc4ncccc43)cc2)c1,-14%,-11%
O=C(Nc1cccc(Cl)c1)c1cccc(N2C(=O)C3CC=CCC3C2=O)c1 (configuration not stated),-14%,-2%
Oc1ccc(NCc2cccc(OCc3ccc(F)cc3)c2)cc1,?,-20%
CCC(CO)Oc1cc(NCc2ccc(OC)cc2)c2ncn(C(C)C)c2c1 (configuration not stated),-22%,-18%
CCOc1ccc(-c2c(C)nn3c(C)c(C(=O)NCc4ccc(Cl)cc4)cnc23)cc1OCC,-16%,-17%
COc1cc(C(c2c(C)[nH]n(-c3ccccc3)c2=O)c2c(C)[nH]n(-c3ccccc3)c2=O)cc(OC)c1OC,-16%,-20%
CSc1ccc(CCNC(=O)c2cnn(-c3ccccc3)c2-n2cccc2)cc1,0%,-3%
Nc1nc2c(ncn2C2CCCC2)c(=O)[nH]1,?,-25%
N#Cc1ccc(C(C(=O)NCc2ccccc2)n2c(=O)c(-c3ccco3)nc3ccccc32)cc1 (configuration not stated),4%,0%
CN(Cc1ccco1)C(=O)C1CCC(=O)N(CCc2cccc(F)c2)C1 (configuration not stated),-28%,-21%
CN(C(=S)NC(=O)/C=C/c1ccc(F)cc1)C1CCCCC1,i,-12%
Nc1ncc(Br)cc1S(=O)(=O)NCCC(=O)N1CCN(c2ccccn2)CC1,-12%,-3%
S=c1nc[nH]c2n[nH]nc12,10%,-21%
